Screening data (PubChem)
Hedgehog = Drosophila hedgehog isoform A inhibitors, primary screen, biochemical, plate reader, single concentration (AID 588832). Biochemical plate reader assay, Hedgehog inhibition; stronger effect = higher value. inhibition, % at 30.3 µM. 8,000 tested, under 10 active; in the data active means inhibition from about 57%;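 further: 0% = neutral control wells and 100% = positive control wells; cholesterol-driven self-cleavage of fly hedgehog protein by fluorescence polarization; read one hour after cholesterol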
* = called active by the depositor. The list is partial (hit frequency here may not be typical).

SMILES	Hedgehog
Cn1c(=O)oc2cc(S(=O)(=O)N3CCc4ccccc4C3)ccc21	6
CCC(C)[C@H](NS(=O)(=O)c1ccc(C)cc1)C(=O)N1CCC(C(=O)N[C@H](C(=O)O)c2ccccc2)CC1 (some centres not stated)	7
Cc1ccc2c(cnn2C(=O)CCCC(=O)NCc2cccc(F)c2)c1	10
CCC(NC(=O)Cc1c(C)c2ccc(OC)c(C)c2oc1=O)C(=O)NC(Cc1ccc(Cl)cc1)C(=O)O (configuration not stated)	0
COc1ccc(C2=NS(=O)(=O)N(C)C(C(=O)Nc3cc(C)ccc3O)=C2)cc1OC	5
CCCCCCc1c(C)c2ccc(OCC(=O)N[C@@H](Cc3ccccc3)C(=O)O)cc2oc1=O	-3
Nc1nonc1-n1nnc(C(=O)N/N=C/c2ccccc2O)c1CN1CCCC1	4
Cc1ccccc1OCc1nnc2n1CC(C)S2 (configuration not stated)	25
Cc1ccc(NC(=O)c2cccc(NC3=NC4CS(=O)(=O)CC4S3)c2)cc1C (configuration not stated)	8
Nc1ccn(C2OC(CO)C(O)C2O)c(=O)n1 (configuration not stated)	5
COc1cc(S(=O)(=O)N2CCN(Cc3ccc4c(c3)OCO4)CC2)c(C)cc1C	17
COc1cc2ccc(=O)oc2cc1O	2
CN(C)CCNc1oc(-c2ccccc2F)nc1C#N	19
Nc1nc(C(=O)N2CCOCC2)nn1C(=O)c1ccc(Cl)cc1	4
CC[C@H]1c2[nH]c3ccccc3c2C[C@H]2C(=O)N(c3ccc(F)cc3)C(=O)N21	11
CCOC(=O)N1CCC(N2C(=O)c3ccc(C(=O)NCc4ccco4)cc3C2=O)CC1	4
CCN1CCN(C(c2cccs2)C(C)NC(=O)NC2CCCCC2)CC1 (configuration not stated)	-1
CCn1c(C(Cc2ccccc2)NC(=O)COC)nc2ccccc21 (configuration not stated)	-6
CCc1cc(=O)oc2cc(C)cc(OC(C)C(=O)NC(Cc3c[nH]c4ccc(O)cc34)C(=O)O)c12 (configuration not stated)	5
O=C(O)c1ccc(O)cc1O	5
COCCn1c(SCC(=O)Nc2ccccc2)nc2c1c(=O)[nH]c(=O)n2C	7
O=C(CS(=O)(=O)c1cn(Cc2ccc(Cl)cc2)c2ccccc12)N1CCOCC1	4
CN1CCc2c(sc(NC(=O)Cc3ccccc3)c2C#N)C1	6
CC(C)C[C@H](NC(=O)N1CC(=O)Nc2ccccc21)C(=O)N1CCC[C@H]1C(=O)O	5
Cc1noc(/C=C/N(C)C)c1S(=O)(=O)N1CCCC(C(=O)N2CCCCC2)C1 (configuration not stated)	0
SMILES	Hedgehog
CCn1cc(C(=O)NCc2ccccc2OC)c(=O)c2cc(S(=O)(=O)N(C)C)ccc21	0
O=c1cc(CSc2nnc(-c3ccccc3)o2)c2ccccc2[nH]1	4
CCOc1ccc2nc(N3CCC(C(=O)N4CCN(c5ccccn5)CC4)CC3)sc2c1	17
O=C(NCc1nnc(SCC(=O)N2CCN(c3ccccc3)CC2)o1)c1c(F)cccc1Cl	3
O=C(C1CC(c2ccc(F)cc2)=NO1)N1CCN(c2ccccc2)CC1 (configuration not stated)	12
COCCn1c(SCC(=O)N2CCN(c3ccccc3)CC2)nc2c(c1=O)SC(C)C2 (configuration not stated)	4
Cc1nc(N2CCN(C)CC2)c2sc(=S)n(-c3ccccc3)c2n1	0
CCc1cccc2sc(NC(=O)C3CC3)nc12	3
COc1ccc(C(c2sc3nc(C)nn3c2O)N2CCc3ccccc3C2)cc1 (configuration not stated)	5
C=CCN(c1ccccc1)S(=O)(=O)c1ccc2c(c1)oc(=O)n2C	6
CCc1cc(=O)oc2c(C)c(OCC(=O)N3CC[C@@]4(O)CCCC[C@H]4C3)ccc12	4
O=C(NCCSc1c[nH]c2ccccc12)C1CC1	7
Cc1ccc(CNC(=O)CC(C)S(=O)(=O)c2cc3c(cc2C)NC(=O)CO3)cc1 (configuration not stated)	11
C=CCNC(=O)C1CC(=O)N(c2ccc(C)cc2)C1 (configuration not stated)	9
Cc1ccc2c(c1)N(CC(=O)NCCCc1ccccc1)C(=O)c1cccnc1O2	20
CC(=O)N1CCOc2cc(S(=O)(=O)NC(C)c3ccccc3)c(Cl)cc21 (configuration not stated)	7
O=C1/C(=C/c2ccc(O)c(O)c2)Oc2cc(O)ccc21	7
COc1ccc(-c2nc(CNS(=O)(=O)c3ccc(OC)c(OC)c3)cs2)cc1	0
C=C1CCC2[C@](C)(CO[C@@H]3O[C@H](CO)[C@@H](O)[C@H](O)[C@H]3O)CCC[C@@]2(C)[C@@H]1CCC1=CCOC1=O (some centres not stated)	5
COC(=O)Cn1c(=NC(=O)CSC(C)=O)sc2ccccc21	-4
CC1CCCCN1C(=O)CCS(=O)(=O)c1cc2c(cc1Cl)NC(=O)CO2 (configuration not stated)	5
O=C(c1ccc(CS(=O)(=O)c2ccccc2)o1)N1CCN(c2ncccn2)CC1	5
CC1CC(C)CN(C(=O)c2cn(C)c3ccc(S(=O)(=O)N(C)C)cc3c2=O)C1 (configuration not stated)	11
Cc1noc(/C=C/N(C)C)c1S(=O)(=O)N1CCC(C(=O)O)CC1	-52
OC(CC(O)c1ccccc1)c1ccccc1 (configuration not stated)	5
SMILES	Hedgehog
O=C(O)/C=C/C(=O)O	7
Cc1nnc(NC(=O)CSc2nnc(Cc3cccn3C)n2-c2cccc(C(F)(F)F)c2)s1	9
N#CC1=C2SCN(c3ccccc3)CN2C(=O)CC1c1ccccc1Cl (configuration not stated)	5
COc1ccc(S(=O)(=O)N2CCCC2C(=O)Nc2ccc(O)cc2)cc1 (configuration not stated)	25
COc1cccc(-c2nc(CS(=O)(=O)CC(=O)N3CCN(c4ccccn4)CC3)c(C)o2)c1	5
Cc1noc(/C=C/N(C)C)c1S(=O)(=O)N1CCc2ccccc21	29
CCCCc1cc(=O)oc2cc(C)cc(OC(C)C(=O)NC(Cc3c[nH]c4ccc(O)cc34)C(=O)O)c12 (configuration not stated)	10
COc1ccc2c(c1)c(=O)oc1c(C)c(OC(C)C(=O)N[C@@H](Cc3c[nH]c4ccc(O)cc34)C(=O)O)ccc12 (some centres not stated)	10
O=C(c1ccc(Cl)cc1)N(Cc1ccco1)C1CCS(=O)(=O)C1 (configuration not stated)	0
O=C1CC(c2ccccc2)CN1S(=O)(=O)c1ccccc1 (configuration not stated)	-6
Nc1nc2n[nH]nc2c(=O)[nH]1	9
Cc1ccc(C(=O)NCCc2csc(C)n2)cc1	1
COc1cc2c(cc1OC)C(C)N(C(=O)Cn1ncc3c1-c1cc(C)ccc1OC3)CC2 (configuration not stated)	17
COc1ccc([C@@H]2COc3c(ccc4c3C=CC(C)(C)O4)C2)c(OC)c1	0
Cc1cc(NC(=O)c2noc3c2CCc2ccccc2-3)n(-c2ccccc2)n1	4
Cc1ccc2[nH]c(=O)c3cc(C(=O)N(C)Cc4ccco4)sc3c2c1	-2
O=C1CCCCC1	4
O=C1C2CC=C(Cl)CC2C(=O)N1CC1Cc2ccccc2CO1 (configuration not stated)	8
CCn1c(SCC(=O)N2CCc3ccccc32)nc2c(c1=O)SC(C)C2 (configuration not stated)	0
COc1ccc(/C=C/C(=O)c2ccc(OC)cc2OC)cc1	5
Cc1cccc(-c2nc(CS(=O)CC(=O)N3CCN(C)CC3)c(C)o2)c1 (configuration not stated)	-3
CCc1cc(=O)oc2c3c(cc(OCC(=O)NCCN4CCOCC4)c12)OC(C)(C)CC3	2
CCC(=O)Nc1c(OC(=O)CC)ccc2c(C)cc(=O)oc12	4
Cc1cccc(C(=O)N2CCN(Cc3ccc4c(c3)OCO4)CC2)c1	6
Cc1ccc(C)c(NC(=O)CSc2nc3ccccc3nc2N2CCOCC2)c1	10

19 entries out of the list, ordered by length of the SMILES, largest number first.
SMILES	Hedgehog
COc1ccc2c(c1)c(=O)oc1c(C)c(OC(C)C(=O)N[C@@H](Cc3c[nH]c4ccc(O)cc34)C(=O)O)ccc12 (some centres not stated)	10
CCCCc1cc(=O)oc2cc(C)cc(OC(C)C(=O)NC(Cc3c[nH]c4ccc(O)cc34)C(=O)O)c12 (configuration not stated)	10
COc1cccc(-c2nc(CS(=O)(=O)CC(=O)N3CCN(c4ccccn4)CC3)c(C)o2)c1	5
Cc1nnc(NC(=O)CSc2nnc(Cc3cccn3C)n2-c2cccc(C(F)(F)F)c2)s1	9
COc1cc2c(cc1OC)C(C)N(C(=O)Cn1ncc3c1-c1cc(C)ccc1OC3)CC2 (configuration not stated)	17
O=C(c1ccc(CS(=O)(=O)c2ccccc2)o1)N1CCN(c2ncccn2)CC1	5
Cc1cccc(-c2nc(CS(=O)CC(=O)N3CCN(C)CC3)c(C)o2)c1 (configuration not stated)	-3
Cc1ccc2[nH]c(=O)c3cc(C(=O)N(C)Cc4ccco4)sc3c2c1	-2
Cc1noc(/C=C/N(C)C)c1S(=O)(=O)N1CCC(C(=O)O)CC1	-52
Cc1ccc(C)c(NC(=O)CSc2nc3ccccc3nc2N2CCOCC2)c1	10
O=C(c1ccc(Cl)cc1)N(Cc1ccco1)C1CCS(=O)(=O)C1 (configuration not stated)	0
Cc1noc(/C=C/N(C)C)c1S(=O)(=O)N1CCc2ccccc21	29
O=C1C2CC=C(Cl)CC2C(=O)N1CC1Cc2ccccc2CO1 (configuration not stated)	8
COc1ccc(/C=C/C(=O)c2ccc(OC)cc2OC)cc1	5
Cc1ccc(C(=O)NCCc2csc(C)n2)cc1	1
OC(CC(O)c1ccccc1)c1ccccc1 (configuration not stated)	5
Nc1nc2n[nH]nc2c(=O)[nH]1	9
O=C(O)/C=C/C(=O)O	7
O=C1CCCCC1	4

Later entries.
SMILES	Hedgehog
O=C(O)C1CCN(C(=O)c2ccccc2N2C(=O)[C@@H]3Cc4c([nH]c5ccccc45)C(c4cccc(Cl)c4)N3C2=O)CC1 (some centres not stated)	-2
CN(C(=O)COc1ccc(Cl)cc1Cl)c1nnc(C23CC4CC(CC(C4)C2)C3)s1	5
COc1ccc(-c2nnc3sc(C(C)N4C(=O)c5ccccc5C4=O)nn23)cc1 (configuration not stated)	15
Nc1nc2ncc(CNc3ccc(C(=O)N[C@@H](CCC(=O)O)C(=O)O)cc3)nc2c(=O)[nH]1	3
Cc1oc(-c2ccccc2Cl)nc1CS(=O)CC(=O)NCc1cccs1 (configuration not stated)	29
COc1ccc(NC(=O)CSc2nc3ccccc3nc2N2CCOCC2)c(OC)c1	6
CC(C)C[C@H](NC(=O)N1c2ccccc2NC(=O)[C@@H]1C(C)C)C(=O)N1CCC[C@@H]1C(=O)O	3
CCC(C)NC(=O)C(Cc1ccccc1)n1cccc1 (configuration not stated)	-2
Cc1ccc(C2=NC3(CCCCC3)N=C2SCC(=O)Nc2ccc3c(c2)OCCO3)cc1	12
Cn1cc(S(=O)(=O)N2CCc3ccccc32)cc1C(=O)Nc1ccc(Cl)cc1	0
CC(C)Cc1cc(C(=O)NCCc2ccccc2)no1	24
COc1cc(-c2nc(C(=O)NC3CCCCC3)cc3c2[nH]c2ccccc23)cc(OC)c1OC	2
COc1ccc(-c2[nH]c3ccccc3c2SCCNC(=O)c2ccccc2)cc1	4
O=C(NCc1ccccc1Cl)c1cccc(NC2=NC3CS(=O)(=O)CC3S2)c1 (configuration not stated)	5
O=C(CCn1c(=O)oc2ccccc21)Nc1nc2ccccc2s1	6
CCCCc1ccc(NS(=O)(=O)c2c(C)n(C)c(=O)n(C)c2=O)cc1	5
Cc1ccc(CNC(=O)Cn2ncn3cccc3c2=O)cc1	7
COc1ccc(NC(=O)NCCCN2CCCC2=O)cc1	21
O=C(C1CCCN(S(=O)(=O)c2cccnc2)C1)N1CCn2c1nc1ccccc12 (configuration not stated)	-8
CCC(C)Sc1nc(C)nc2c1c(=O)n(C)c(=O)n2C (configuration not stated)	3
CC(C)Cn1c(C(C)NC(=O)Cc2ccccc2)nc2ccccc21 (configuration not stated)	-5
Cc1cc(Nc2ccccc2Br)n2nc(C)nc2n1	5
Cn1cccc1Cc1nnc(SCC(=O)Nc2cccc(F)c2)n1-c1ccc(F)cc1	21
O=C(Cn1cnc2c(nnn2-c2ccccc2)c1=O)N1CCCc2ccccc21	10
CC(Oc1ccc2c(-c3ccccc3)cc(=O)oc2c1)C(=O)NCC(O)c1ccccc1 (configuration not stated)	5
SMILES	Hedgehog
Cc1ccc2c(c1)N(C(=O)CCC(=O)NC1CCCCCC1)CC(C)O2 (configuration not stated)	8
CN1CSC2=C(C#N)C(c3cccc(OCc4ccccc4)c3)CC(=O)N2C1 (configuration not stated)	3
CCOC(=O)C1CCCN(C(=O)C(=O)Nc2ccc3nc4n(c(=O)c3c2)CCCCC4)C1 (configuration not stated)	5
CC(=O)Nc1sc2c(c1C(c1ccccc1Cl)N1CCN(CCO)CC1)CCCC2 (configuration not stated)	15
Cn1c(Cn2c(=O)sc3ccccc32)nnc1SCC(=O)N1CCOCC1	17
CC(C)C(=O)Nc1c(C(=O)c2ccc(F)cc2)oc2ccccc12	9
Cc1ccc(C2CC(c3ccc(F)cc3)Nc3nc(N)nn32)cc1 (configuration not stated)	11
COc1ccc(N(CC(=O)NCc2cccs2)S(=O)(=O)c2c(C)nn(C)c2C)cc1	4
O=C(NCCc1ccccc1)c1ccc(NC2=NC3CS(=O)(=O)CC3S2)cc1 (configuration not stated)	7
Cc1ccc2c(c1)N(C(=O)CCC(=O)N1CCN(c3cccc(C)c3C)CC1)CCO2	8
Cc1ccc2c(c1)NC(=O)C(CC(=O)NCCCN1CCc3ccccc3C1)O2 (configuration not stated)	17
O=C(CSc1nc2ncccc2[nH]1)NCCc1ccccc1	4
CCOc1ccc(NC(=O)C2CCCN(S(=O)(=O)c3c(C)n[nH]c3C)C2)cc1 (configuration not stated)	-4
